Screening data (PubChem BioAssay)
HNF4A DNA FP = change in binding of human HNF4 alpha to DNA; HNF4a-FITC DNA binding, fluorescence polarization, 1 h; activity change, % at 10 µM; 0.3% of 360,000 active; AID 1224865; in the data active = activity change above about 30%, passing the limit was not always enough;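 also: controls were the assay level and a saturating level of protein; the project sought stronger binding though the title names inhibitors; some compounds called inactive have numbers as strong as hits; positive values seem to mean higher polarization but the record does not say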
Target sequence (P41235 whole entry, looked up): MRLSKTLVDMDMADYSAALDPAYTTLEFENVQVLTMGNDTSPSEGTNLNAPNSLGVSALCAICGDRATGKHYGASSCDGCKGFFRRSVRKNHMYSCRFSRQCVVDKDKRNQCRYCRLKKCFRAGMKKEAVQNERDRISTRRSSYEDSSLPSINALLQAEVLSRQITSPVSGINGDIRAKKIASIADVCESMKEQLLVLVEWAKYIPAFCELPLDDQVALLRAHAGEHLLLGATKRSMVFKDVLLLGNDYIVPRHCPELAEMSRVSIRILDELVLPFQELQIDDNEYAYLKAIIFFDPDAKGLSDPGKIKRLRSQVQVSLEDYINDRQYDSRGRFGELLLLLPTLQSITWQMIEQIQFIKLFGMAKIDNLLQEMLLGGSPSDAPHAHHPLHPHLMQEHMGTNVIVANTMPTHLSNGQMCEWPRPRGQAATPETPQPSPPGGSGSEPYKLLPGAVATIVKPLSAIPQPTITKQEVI
Ecoli growth = blocks Escherichia coli growth; AID 1053175; 0.21% of 330,000 active; OD600, 23 h; stronger effect = lower value; OD600 absorbance (test concentration not listed);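 active = OD600 absorbance below the run mean of sample wells minus 3.6 SD, in any replicate, cut at about 0.56 in these data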;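 also: stock transfer was 300 nL into about 60 µL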
Ecoli rRNA inh = inhibits bacterial ribosomal RNA function over humanized ribosomes; E. coli WT GFP vs humanized-ribosome RFP mutants, fluorescence, 24 h; stronger effect = lower value; DMSO median 0, no signal -100; GFP signal change (wild-type ribosome), % (test concentration not listed); AID 720706; 1.6% of 350,000 active;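 active = significant combined selectivity score with lowered wild-type GFP, culture density cut under 30%, mutant RFP and density less affected; inactive = any of these conditions unmet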; also: one replicate is shown; some compounds called inactive have numbers as strong as hits
ALR inh = blocks human ALR sulfhydryl oxidase activity; P55789; purified ALR, DTT oxidation, H2O2 HRP-luminol luminescence; inhibition, % (no concentration beside the values); 3.8% of 290,000 active; AID 485317;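 active = mean and each replicate at 75% or more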;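 also: stock transfer was 7.5 nL into about 7.5 µL; 0% = neutral wells and 100% = wells with inactivated enzyme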
UCH37 DUB inh = blocks the human deubiquitinase UCH37. purified proteasome/UCH37, Ub-AMC cleavage fluorescence. inhibition, % (concentration not given with the values). 0.33% of 330,000 active;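 active = mean of two replicates above 20%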;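 also: 0% = compound-free wells with enzyme and 100% = wells lacking proteasome; stock transfer was 100 nL into about 20 µL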
Target sequence (Q9Y5K5 whole entry, looked up): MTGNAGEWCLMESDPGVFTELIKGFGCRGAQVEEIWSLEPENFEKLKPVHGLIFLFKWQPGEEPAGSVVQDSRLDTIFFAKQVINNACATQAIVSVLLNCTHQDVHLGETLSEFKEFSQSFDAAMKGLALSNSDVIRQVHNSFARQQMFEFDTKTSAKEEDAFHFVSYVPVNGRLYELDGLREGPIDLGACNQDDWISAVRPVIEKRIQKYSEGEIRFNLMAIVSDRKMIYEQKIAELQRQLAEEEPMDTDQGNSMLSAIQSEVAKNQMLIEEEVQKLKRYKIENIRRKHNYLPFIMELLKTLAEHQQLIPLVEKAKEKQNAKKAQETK
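system = Proteasome-associated human UCH37 deubiquitinase | amount = 0.15 nM proteasome as dispensed | medium = pH 7.4 Tris-HCl (50 mM) with ovalbumin, ATP-MgCl2, DTT | incubation = 30 min preincubation with enzyme, 25 min cleavage at room temperature | detection = AMC fluorescence 355/460 nm | read-out basis = percent inhibition | controls = no-proteasome and no-compound wells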
FGF22 binding = shifts melting point of recombinant human FGF22 | Q9HCT0 | recombinant FGF22 thermal shift, SYPRO orange fluorescence; percent of sucrose octasulfate shift, DMSO zero | calls only at 9.99 µM | 1.5% of 340,000 active | AID 651658;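 active = melting point raised past a set limit in the mean and every replicate; three in four hits are not shown here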
Target sequence (Q9HCT0 whole entry, looked up): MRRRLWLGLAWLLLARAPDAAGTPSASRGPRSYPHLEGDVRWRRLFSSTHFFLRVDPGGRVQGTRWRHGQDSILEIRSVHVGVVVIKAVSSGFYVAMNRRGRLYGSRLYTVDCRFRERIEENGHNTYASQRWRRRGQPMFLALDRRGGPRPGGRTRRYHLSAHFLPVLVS
B2AR ag = agonists of human beta-2 adrenergic receptor inducing internalization. 0.43% of 340,000 active. Am2.2-beta2AR cells, FAP receptor internalization, flow cytometry; reference of the scale not given here. P07550. response, % (test concentration not listed);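 active = response above a set limit, near 3 SD of response in nonfluorescent compounds, cut at about 42% in these data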;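 also: stock transfer was 100 nL into about 11 µL; a reference agonist was the positive control; negative values mostly stem from fluorescent compounds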
Ecoli rRNA inh OD600 = further read-out of Ecoli rRNA inh, marked with its call; OD600 change, %; measured here: OD600 growth;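 optical density of the mix in the first replicate; 0 = DMSO median and -100 = no signal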
Ecoli rRNA inh RFP = further read-out of Ecoli rRNA inh, marked with its call; RFP signal change, %; measured here: RFP humanized mutant strains;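 first replicate; 0 = DMSO median and -100 = no signal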
* marks the source's active call; other numbers are inactive results; i = inactive; . = not tested or not shown. A portion of the library; rates above refer to the full screens.

SMILES	HNF4A DNA FP	Ecoli growth	Ecoli rRNA inh	Ecoli rRNA inh OD600	Ecoli rRNA inh RFP	ALR inh	UCH37 DUB inh	FGF22 binding	B2AR ag
CC(=O)Nc1ccc(NC(=O)C(C)OC(=O)C(C)SCC(=O)Nc2ccc(F)cc2)cc1 (stereo unspecified)	2.4	0.683	7.0	6.3	-1.3	-0.3	-1.1	i	-1.1
COC(=O)c1cc(Cl)ccc1NCC(N)c1ccccc1 (stereo unspecified)	0.3	.	0.3	-27.8	1.2	.	.	i	.
CCOc1ccc(CN2CCN(Cc3cccc4c3OCO4)CC2CCO)cc1 (stereo unspecified)	1.5	0.698	7.2	-1.3	-0.9	0.7	2.9	i	-8.7
CC(=O)c1cccc(NC(=O)COC(=O)c2ccc3c(c2)OCO3)c1	-3.0	0.682	9.9	9.3	2.5	-19.4	2.1	i	-1.9
COc1ccc(CC(NC(C)=O)C(=O)NC2CCN(c3nc(C)cc(C)c3C#N)CC2)cc1OC (stereo unspecified)	0.9	0.699	16.9	10.6	2.2	2.8	-102.4	i	3.9
COc1ccc(-c2cc(C(=O)Nc3cc(S(N)(=O)=O)ccc3C)c3ccccc3n2)cc1OC	5.1	0.697	.	.	.	-3.2	-98.6	i	5.2
O=C(CSc1nnc(CNC(=O)c2ccco2)o1)Nc1ccccc1	-0.5	0.653	11.5	9.6	1.7	-1.7	0.0	i	-11.2
O=C(CSc1nnc(CNC(=O)c2c(F)cccc2Cl)o1)NC1CCCC1	-0.2	0.661	9.3	13.4	-1.9	0.7	5.7	i	2.7
CC(C)OCC(O)Cn1c(N2CCCC2)nc2c1c(=O)[nH]c(=O)n2C (stereo unspecified)	-2.1	0.692	8.9	18.6	-0.3	19.6	1.4	.	0.9
CCOC(=O)C1CCN(C(=O)COC(=O)CSc2ccc([N+](=O)[O-])cc2)CC1	-2.5	0.689	3.1	7.9	-2.7	.	5.1	i	-0.3
O=c1c2ccccc2c(C=Nc2ccc(Cl)cn2)c(O)n1-c1cc(Cl)ccc1N1CCOCC1	-2.7	0.677	.	.	.	-5.3	-0.2	.	-5.9
COc1ccc(CCNc2nc3ccccc3n3nnnc23)cc1OC	-4.1	0.76	9.0	6.8	3.4	.	-19.3	i	-0.2
Cc1ccccc1-c1cnc(C(O)c2ccc(F)c(F)c2)[nH]1 (stereo unspecified)	-0.3	.	2.1	-9.7	0.0	.	.	i	.
O=[N+]([O-])c1ccccc1Nc1ccccc1[N+](=O)[O-]	-2.7	0.743	5.0	11.1	1.3	.	5.9	i	1.7
CC1Cc2ccccc2N1C(=O)CSc1nnc(-c2ccccc2)c(-c2ccccc2)n1 (stereo unspecified)	0.9	0.763	.	.	.	-2.6	3.5	.	0.2
CCCCNC(=O)c1ccc2nc(CC)c(N(C)Cc3ccc(OC)cc3)n2c1	-3.9	.	-6.5	-20.9	3.9	.	.	i	.
O=C(CSc1cccc2cccnc12)N/N=C/c1cccc(O)c1	0.3	.	.	.	.	34.3	.	.	5.1
Cc1nc(N2CCCCC2)c2c(C)c(C(=O)Nc3cccc(C(F)(F)F)c3)sc2n1	-0.5	0.714	12.5	11.2	-0.3	-5.4	-30.4	i	1.4
O=C(Nc1ccccc1F)c1ccc(Cn2cc(Br)cn2)cc1	0.9	0.652	-23.9	-26.2	-2.7	31.1	-0.3	i	3.7
CCN(CC)c1ccc(/C=C/C(=O)c2ccc(Br)cc2)cc1	-4.1	0.75	.	.	.	4.9	1.1	.	.
COc1cc(NC(=O)c2ccc(Cl)cc2)c(OC)cc1NC(=O)CN1CCOCC1	-0.7	0.765	.	.	.	-19.0	0.6	.	-3.3
CN(C(=S)NC1=CCS(=O)(=O)C1)C1CCCCC1	3.7	0.651	.	.	.	21.4	6.8	.	8.8
CC(C)N1CC(COc2ccccc2Cl)OC1=O (stereo unspecified)	-0.1	0.713	2.3	-3.0	2.3	-4.5	4.1	i	2.6
O=c1cc(-c2ccc(O)cc2)oc2ccc3ccccc3c12	6.7	0.716	-1.8	6.9	-0.1	23.8	2.8	i	14.8
CCCCN(C(=O)COC(=O)c1ccc(C)s1)c1c(N)n(CCC)c(=O)[nH]c1=O	-1.3	0.701	5.0	12.3	-2.6	1.5	3.9	i	3.8
(list continues)
SMILES	HNF4A DNA FP	Ecoli growth	Ecoli rRNA inh	Ecoli rRNA inh OD600	Ecoli rRNA inh RFP	ALR inh	UCH37 DUB inh	FGF22 binding	B2AR ag
Nc1ccc(N2CCN(C(=O)c3ccco3)CC2)cc1	2.2	0.672	.	.	.	98.9*	1.3	.	7.9
O=C1CC(c2ccccc2)CC(O)=C1C=NCc1ccc(Cl)cc1 (stereo unspecified)	3.0	0.723	.	.	.	1.3	0.7	.	-10.2
Nc1ccc(C(=O)OCC(=O)Nc2ccc3c(c2)OCO3)cc1[N+](=O)[O-]	3.2	0.699	.	.	.	-8.3	2.8	.	4.5
O=C(NCC(=O)N1CCN(c2ccccc2O)CC1)c1ccccc1	2.5	0.695	0.4	7.5	0.0	70.0	1.3	i	-1.8
CCN(CC)C(NC(=O)Cc1ccccc1)C(Cl)(Cl)Cl (stereo unspecified)	-1.9	0.694	.	.	.	1.3	0.7	.	24.4
CN(C)C(=O)c1ccc(NC(=O)c2cncc(Br)c2)cc1	2.4	0.672	.	.	.	.	-1.4	.	3.3
COc1ccccc1N1CCN(Cc2nc(-c3ccc(F)cc3)oc2C)CC1	3.7	.	-5.3	-10.8	5.0	15.0	.	i	-6.5
CCN(CC)C(=O)C1CCCN(Cc2ccc3ccccc3c2)C1 (stereo unspecified)	1.6	0.705	10.5	4.7	1.2	-0.7	4.8	i	3.5
CC1CN(C(=O)C2CC2)C(C)CN1C(=O)C1CC1 (stereo unspecified)	-1.4	0.686	11.4	27.2	14.3	-1.4	2.4	i	12.1
O=C(OCC1COC(c2ccccc2)(c2ccccc2)O1)c1ccccc1 (stereo unspecified)	3.0	0.72	0.9	0.8	-4.6	.	2.6	i	0.2
CCCCNS(=O)(=O)c1ccc2nc(-c3cccnc3)cc(C(=O)NCCCOC)c2c1	-3.0	0.688	6.3	18.8	-0.4	-2.7	5.8	i	-5.2
Cc1ccc(O)c(-c2[nH]ncc2C(=O)c2ccc(Cl)cc2)c1	0.5	0.579	-29.2	-31.2	-10.8	49.8	3.7	i	8.2
CC(C)CN(C)C(=O)CCc1nnc(Cc2ccc(-c3ccccc3)cc2)o1	-1.5	0.708	-29.2	-43.0	-1.6	-6.0	3.0	i	-1.7
CC(=O)c1c(C)[nH]c(C(=O)OCC(=O)NCc2ccc3c(c2)OCO3)c1C	1.1	0.705	2.5	-15.4	20.6	-2.3	5.2	i	-1.2
CC1Cc2cc(/C(O)=C3\C(=O)C(=O)N(Cc4cccnc4)C3c3ccccc3F)ccc2O1 (stereo unspecified)	-1.4	0.689	.	.	.	7.3	11.1	.	0.6
O=C(CCn1c(=O)[nH]c2ccsc2c1=O)N(CCc1ccccc1)Cc1ccccc1	1.9	0.685	.	.	.	.	5.9	.	-2.6
CN(C(=O)c1ccc2nccnc2c1)C1CCCCC1	1.9	0.688	-15.1	-9.1	-1.7	-1.2	1.8	i	0.3
COc1cc(S(=O)(=O)Nc2cc(C)cc(C)c2)ccc1F	0.8	0.671	.	.	.	-4.9	1.0	i	5.6
Cc1ccc(/C=C/C(=O)OCC(=O)Nc2cccnc2Cl)o1	-3.6	0.65	13.6	9.6	5.5	2.5	3.4	i	3.0
O=C(Cc1c[nH]c2ccccc12)NCC(=O)Nc1ccc(F)c(F)c1F	3.3	0.65	-1.0	2.2	-3.7	-2.0	1.1	i	2.1
Cc1cc2cc(C)c(NCCNC(=O)c3cccs3)nc2cc1C	4.1	0.667	5.0	2.3	1.2	-2.0	-2.4	i	27.1
Cc1cc(C)n(-c2ccc(C(=O)Nc3nnc(C4CC4)s3)cc2)n1	-2.6	0.675	.	.	.	-5.5	-7.6	.	4.8
COc1ccc(SN=C2C(C)=CC(=O)C=C2C)cc1	2.3	0.711	16.6	17.6	9.7	68.7	11.9	.	5.0
CCC1(c2ccc(F)cc2)NC(=O)N(CC(=O)Nc2ccccc2Cl)C1=O (stereo unspecified)	-1.4	0.704	-6.2	-4.8	1.8	1.1	1.8	i	-5.0
O=C1CC(c2ccc(F)cc2)Cc2nc(N3CCOCC3)ncc21 (stereo unspecified)	0.7	0.689	.	.	.	-1.7	3.2	.	-5.4
Next part:
SMILES	HNF4A DNA FP	Ecoli growth	Ecoli rRNA inh	Ecoli rRNA inh OD600	Ecoli rRNA inh RFP	ALR inh	UCH37 DUB inh	FGF22 binding	B2AR ag
O=C(O)CCN1C(=O)C2C3C=CC(C3)C2C1=O (stereo unspecified)	1.6	0.671	.	.	.	-1.4	4.2	.	0.7
COC(=O)c1c(NC(=O)c2ccc(S(=O)(=O)N3CCOCC3)cc2)sc2c1CCN(C)C2	.	0.718	.	.	.	-1.5	11.0	.	.
Cc1cc(=O)[nH]c(SCC(=O)Nc2ccc(Br)cn2)n1	-0.3	0.653	.	.	.	8.0	4.4	.	5.1
CN(C)S(=O)(=O)c1ccc(C(=O)Nc2cccc(C(=O)N3CCOCC3)c2)cc1	-3.2	0.67	9.3	1.4	-1.9	-0.4	-2.1	i	2.7
Cc1ccccc1-c1nc(CN2CCC(C(=O)N3CCN(c4ccccn4)CC3)CC2)c(C)o1	0.7	0.755	-2.1	-1.9	-0.4	-12.4	1.7	i	-17.9
Cn1nnc2cc(C(=O)N3CCN(c4ccccc4)CC3)ccc21	-0.2	0.735	.	.	.	28.2	4.8	.	-10.6
CN(CC(=O)Nc1ccccc1Cl)C(=O)C1CSC2(C)CCC(=O)N12 (stereo unspecified)	1.6	0.685	10.6	10.8	-2.1	-8.2	1.8	i	5.2
CC(NC(=O)c1ccc(Br)o1)C1CCCO1 (stereo unspecified)	0.0	0.639	19.6	14.1	2.9	-8.6	-0.8	i	-2.9
O=C(CCS(=O)(=O)c1cc(Br)cc2c1N(C(=O)C1CC1)CC2)N1CCN(c2ccccn2)CC1	6.1	0.689	7.5	6.0	1.0	.	3.1	i	1.1
O=C(O)C1C2OC3C(OC(=O)C31)C2Br (stereo unspecified)	4.4	0.719	9.3	19.4	2.6	.	2.3	.	-7.0
NS(=O)(=O)c1cnccc1Oc1cccc(Cl)c1	-3.5	0.706	3.3	5.2	-0.6	-1.9	4.4	i	-1.3
O=C(NC1CCCC1)C1CCN(C(=O)Nc2cccc(Cl)c2)CC1	-2.9	0.592	-2.7	0.4	-2.0	-1.1	-0.1	i	-4.6
O=C(Nc1ccccc1Cc1ccccc1)c1ccncc1	-0.5	0.655	5.3	3.6	-0.4	-12.4	0.6	i	-3.2
O=C(CCC1COc2ccccc2O1)N1CCCC1 (stereo unspecified)	5.3	0.673	.	.	.	2.8	0.3	.	4.5
CC(C)(C)C(=O)N1CCCC1C(=O)O (stereo unspecified)	-2.0	0.723	.	.	.	0.8	1.0	.	14.7
Cn1cc(C(=O)N2CCc3ccccc3C2)c(=O)c2cc(S(=O)(=O)N3CCCCC3)ccc21	.	0.694	.	.	.	-2.2	1.2	.	.
Cc1ccc(C(C)(C)C)c(OCCOCCN2CCCC2)c1	2.0	0.688	-9.6	-9.3	1.5	-8.9	-2.5	i	5.8
CCc1ccc2nc(N3CCN(C)CC3)c(C#N)cc2c1	2.6	0.673	.	.	.	-5.8	-51.6	.	0.0

Some entries already given, showing only Ecoli rRNA inh.
compound | Ecoli rRNA inh
O=C(Nc1ccccc1Cc1ccccc1)c1ccncc1 | 5.3
O=C(NC1CCCC1)C1CCN(C(=O)Nc2cccc(Cl)c2)CC1 | -2.7
